Assay outcomes (PubChem BioAssay)
Vaccinia Venus: qHTS for Stage-Specific Inhibitors of Vaccinia Orthopoxvirus: Venus Reporter Primary qHTS | Vaccinia virus Venus reporter expression, fluorescence | Potency, µM (top dose mostly 36.5 µM), for inactives: at the top dose activity change, negative = inhibition, usual class: inhibitors | 0.46% of 330,000 active | AID 720580, 2013; active means well fitted inhibition curve with a large enough effect; inconclusive means small, poorly fitted or top-dose-only effect; inactive means no such curve, though single readings can be large or run the other way; tested in A549 cells; also: nearly all actives have a fitted effect of over 30% in size; inactives centre near -10
VACV mCherry inh: qHTS for Stage-Specific Inhibitors of Vaccinia Orthopoxvirus: mCherry Reporter Primary qHTS. Vaccinia virus mCherry reporter infection, fluorescence; about a quarter of the inactives have no number. 0.63% of 310,000 active. Potency, µM (titrated, usually from 36.5 µM), for inactives: top-dose activity change, negative = inhibition, actives largely listed as inhibitors; active = well fitted inhibition curve with a large enough effect; inconclusive = small, poorly fitted or top-dose-only effect; inactive = no such curve, though single readings can be large or run the other way; tested in A549 cells; also: nearly all actives have a fitted effect of over 35% in size; inactives centre near -10
Starred values were filed as active, the others as inactive; i = inactive; ? = inconclusive; / = not tested or not shown; & = joins results of further samples; [ ] = dose if it differs, or a comment. % is scaled to controls: 0 for no effect and ±100 for the full control effect; potency is read from the fitted curve at half-maximal effect.

molecule | Vaccinia Venus | VACV mCherry inh
C=CCN(CC=C)c1nc2ccccc2nc1C(C#N)C(=O)OCCOC (configuration not stated) | -9.0% | /
Clc1ccc(CSc2nnc([C@@H]3CCCN3)o2)cc1Cl | 6.9% | /
COC(C[C@H]1O[C@@H]1[C@@H](O)COCc1ccccc1)OC | 12.3% | -12.9%
CCC(=O)Nc1ccccc1-c1nc2ccccc2n(C(CC)C(=O)Nc2cccc(C(C)=O)c2)c1=O (configuration not stated) | 1.6% | -13.9%
Cc1nc(C(F)(F)F)ccc1C(=O)N1CCC1(C)C(=O)NS(=O)(=O)c1ccc(C#N)cc1 (configuration not stated) | 2.4% | 44.0%[activator]
CC1CCN(c2ccc(-c3cccc(NS(=O)(=O)c4ccc(Cl)s4)c3)nn2)CC1 | -10.7% | -12.8%
CS(=O)(=O)c1ccc2nc(NC(=O)Nc3ccc(Cl)cc3)sc2c1 | -17.0% | -4.4%
COc1ccc(-c2cc(C(F)F)n3ncc(C(=O)Nc4c(C)n(C)n(-c5ccccc5)c4=O)c3n2)cc1 | -8.9% | -8.3%
CCOC(=O)c1c(C)[nH]c(C(=O)COC(=O)COc2ccccc2C=O)c1C | -4.5% | -13.7%
COc1cccc(NC(=O)Cn2cnc3sc(C)c(S(=O)(=O)N4CCCCC4)c3c2=O)c1 | 2.9% | -14.7%
COC(=O)C1=C(N)Oc2cc(C)n(CC3CCCO3)c(=O)c2C1c1ccc(Cl)cc1 (configuration not stated) | -14.5% | /
Cc1ccc(-n2ncc3c(NCCc4ccc(S(N)(=O)=O)cc4)ncnc32)cc1 | -22.5% | -21.7%
CCn1c(CNc2ccc(Cl)cc2)nnc1SCc1ccc(Cl)cc1 | -23.0% | ?
S=c1[nH]c(-c2ccccc2)cn1/N=C/c1cccs1 | 24.6% | ?
CCCC12CN3CC(C)(CN(C1)C3c1cn(CC)c3ccccc13)C2=O (configuration not stated) | -7.3% | -0.5%
C#CCCCCCCCCCCCc1ccco1 | 0.0% | -4.5%
O=[N+]([O-])c1ccc2c([N+](=O)[O-])ccc3c2c1CC3 | -27.6% | -19.5%
Cc1ccc2c(c1)c1c3n2CCN(CC(O)CNC(C)C)C3CCC1 (configuration not stated) | -18.5% | -12.2%
C/C(=N\NC(=O)c1ccco1)c1cc2ccccc2o1 | -12.1% | i
C#CCOCCOCCOCCNc1nc(N2CCN(C(=O)CCCCCCCCCCNC(=O)[C@H](CCCCN)n3cc(C)nn3)CC2)nc(N2CCN(C(=O)CCCCCCCCCCNC(=O)[C@H](CO)n3cc(CCCSC)nn3)CC2)n1 | 7.94µM* | ?
c1ccc2cc(CNCc3cccc4ccccc34)ccc2c1 | -8.0% | -14.0%
COc1ccccc1CNc1nc2cc(-c3ccccc3C)sc2c(=O)n1C | -1.9% | -14.1%
N#C/C(=C\c1cccnc1)C(=O)Nc1cccc(Cl)c1 | -6.6% | -1.5%
O=[N+]([O-])c1ccc(C=NNc2ccccc2)cc1 | -13.7% | -28.7%
O=c1[nH]c2cc(Cl)cc([N+](=O)[O-])c2c2ccc(Cl)cc12 | -6.2% | i
COC(=O)c1ccccc1N(C)C(=O)C12CCC(C)(C(=O)O1)C2(C)C (configuration not stated) | -19.9% | /
COc1cccc2cc(C(=O)N3CCC(C)CC3)c(=O)oc12 | -0.3% | -8.5%
O=C(CCc1nnc2n(Cc3ccccc3Cl)c(=O)c3ccccc3n12)Nc1ccc(F)cc1 | 10µM* | 10µM*
COC(=O)c1ccsc1NC(=O)CN1CCN(c2ccc(F)cc2)CC1 | -5.0% | /
COc1ccc(CC(=O)OCC(=O)NCc2ccc(C)cc2)cc1OC | -12.4% | i
COc1ccc(-c2cc3ccc(O)c(CN4CCCC(C)C4)c3oc2=O)cc1OC (configuration not stated) | -5.8% | -5.2%
O=C(Nc1c(C(=O)N2CCOCC2)cnn1-c1ccccc1Cl)c1ccco1 | -3.3% | -8.2%
COc1ccc(Br)cc1C(=O)N/N=C/c1cccnc1 | -6.8% | i
CC1(c2ccc(Cl)cc2)NC(=O)N(CC(=O)Nc2ccc(F)cc2)C1=O (configuration not stated) | -8.7% | -4.2%
Cc1ccc(S(=O)(=O)N(OCc2ccccc2)C(C)C(=O)O)cc1 (configuration not stated) | -5.1%[7.34 µM] | i[7.34 µM]
COc1ccc(-c2noc(CCCC(=O)N3CCN(c4cc(C)ccc4C)CC3)n2)cc1 | -7.9% | -6.4%
CCCCNS(=O)(=O)c1ccc2nc(-c3cccnc3)cc(C(=O)NCCC)c2c1 | ? | -29.2%
O=C(Nc1ccc2c(c1)OCO2)c1ccc(Br)o1 | -3.0% | i
Cc1ccc(NC(=O)c2cn3c4c(ccc(Cl)c4c2=O)OC(C)C3)cc1C (configuration not stated) | 54.1%[activator] | 3.4%
CN(C(=O)CSc1ncnc2ccccc12)C1CCCCC1 | -14.5% | -9.0%
COc1ccc(N=C2C(=Nc3ccc(OC)cc3)N(c3ccc(OC)cc3)C(=S)N2C)cc1 | -15.8% | -8.1%
Cc1cccn2c(=O)c(C(=O)NC(C)c3ccccc3)cnc12 (configuration not stated) | -12.3% | -18.4%
COc1ccc2c(c1)c(C(=O)CN1CCOCC1)c(C)n2C | 7.1% | 6.9%
COc1cccc(CC(NC(C)=O)C(=O)NC2CCN(c3nc(C)cc(C)c3C#N)CC2)c1 (configuration not stated) | -2.0% | -9.1%
CCCCc1ccc(C(=O)N/C(=C\c2ccc(C)cc2)C(=O)NC2CCCCC2)cc1 | -8.0% | -6.2%
O=C(CSc1nc2c([nH]c3ccccc32)c(=O)n1-c1ccccc1)N1CCCC1 | -3.9% | -7.1%
COc1cccc(CN(C)C(=O)c2cc(COc3ccc4ncccc4c3)on2)c1 | -8.2% | -10.0%
COc1ccc(OC)c(C2C(C(C)=O)=C(O)C(=O)N2CCc2ccc(OC)c(OC)c2)c1 (configuration not stated) | -11.3% | i
CC(OC(=O)c1cccnc1Cl)C(=O)NC1CCCCC1 (configuration not stated) | -6.3% | i
CCOCCc1nnc(NC(=O)CCS(=O)(=O)c2ccccc2)s1 | ? | ?

Additional records
molecule | Vaccinia Venus | VACV mCherry inh
COc1ccc(N2CCN(C(=O)CN3C(=O)NC4(CCCc5ccccc54)C3=O)CC2)cc1 (configuration not stated) | -16.9% | -24.7%
COC(=O)CSc1nnc2n(-c3ccc(OC)cc3)c(=O)c3c4c(sc3n12)CCCCC4 | 0.4% | -3.7%
C=CCn1c(N)cc(=O)nc1SCC(=O)NC(C)c1ccccc1 (configuration not stated) | -0.8% | -11.4%
CCOc1ncccc1C(=O)Nc1ccc2c(c1)OCCCO2 | -13.8% | i
Cc1ccc(C)c(NC(=O)CSC2=Nc3ccccc3N=C(c3ccc(F)cc3)C2)c1 | -5.8% | -5.8%
c1ccc2[nH]c(CCCc3nc4ccccc4[nH]3)nc2c1 | -10.2% | -7.3%
Nc1nc(Nc2ccccc2)nc(NC2CCCCC2)c1[N+](=O)[O-] | ? | ?
Cn1cc(Br)c(C(=O)NC(=S)N2CCN(c3ccccn3)CC2)n1 | -1.5% | -14.7%
CCOc1ccccc1NC(=O)CCNC(=O)c1ccco1 | -9.8% | -8.1%
COc1cccc(CNC(=O)CCc2c(C)c3cc4c(C)coc4c(C)c3oc2=O)c1 | ? | ?
CC(Cl)c1cc(-c2ncc(C(F)(F)F)cc2Cl)no1 (configuration not stated) | -18.3% | -20.0%
COc1cccc2c1C(CCCC(=O)O)CCC2 (configuration not stated) | -9.1% | i
CC(C)(C)c1ccc(C(=O)N2CCC(C(=O)NCc3ccco3)CC2)cc1 | -5.3% | /
O=C(CN1CCCCCC1=O)OCc1ncc(-c2ccccc2)o1 | -8.9% | -15.7%
Cc1ccc(-n2nc3c(=O)n(CCCC(=O)NCCN4CCN(C)CC4)nc(C)c3c2C)cc1 | ? | ?
CN(C)S(=O)(=O)c1ccc(C(=O)Nc2ccn(C)n2)cc1 | -6.9% | 40.2%[activator]
CCc1nc2ccc(C(=O)Nc3ccc(OC)c(OC)c3)cn2c1N(C)Cc1nccs1 | -14.7% | 0.0%
N#C/C(=C(/O)COC(=O)c1ccc(O)cc1)c1nc2ccccc2[nH]1 | -12.4% | i
Cc1c(C(=O)NC(C)(C)C)sc2ncnc(NCCN(C)C)c12 | -16.9% | -12.5%
CCn1nc(-c2ccccc2)nc2c(=O)n(C)c(=O)nc1-2 | 2.24µM* | 2.51µM*
Cn1cccc1-c1cc2n(n1)CCC(=O)N2CCCC(=O)NCc1ccc(F)cc1 | 12.9% | -4.5%
COc1cccc(CNS(=O)(=O)c2cc3c4c(c2)CCC(=O)N4CCC3)c1 | -20.6% | -21.5%
COC(=O)/C(=N/Nc1ccc(C)cc1)N1CCCc2ccccc21 | 3.6% | -19.4%
O=S(=O)(c1ccccc1)c1nc(-c2ccc(Cl)cc2)oc1NCCCN1CCOCC1 | -1.4% | -10.6%
CSc1ccc(C(=O)C2CCCN(Cc3cnc(SC)nc3)C2)cc1 (configuration not stated) | -19.3% | i
O=C(COC(=O)C1CC2C=CC1C2)Nc1ccc([N+](=O)[O-])cc1 (configuration not stated) | -3.4% | -15.7%
C[C@@H]1CN([C@@H](C)CO)S(=O)(=O)c2ccc(Br)cc2O[C@H]1CN(C)C(=O)C1CCC1 | -6.9% | -8.6%
O=C(O)c1ccc(CN2C(=O)c3cccc4c([N+](=O)[O-])ccc(c34)C2=O)cc1 | -5.5% | -2.6%
COc1cc(OC)nc(Nc2nc(CN)cs2)n1 | -3.9% | -13.2%
Cc1ccc(S(=O)(=O)NCCNC(=O)c2nonc2N)cc1 | -5.4% | -16.5%

3 compounds out of the list, sorted by length of the SMILES, rising:
molecule | Vaccinia Venus | VACV mCherry inh
CN(C(=O)CSc1ncnc2ccccc12)C1CCCCC1 | -14.5% | -9.0%
COc1cccc(CC(NC(C)=O)C(=O)NC2CCN(c3nc(C)cc(C)c3C#N)CC2)c1 (configuration not stated) | -2.0% | -9.1%
CCC(=O)Nc1ccccc1-c1nc2ccccc2n(C(CC)C(=O)Nc2cccc(C(C)=O)c2)c1=O (configuration not stated) | 1.6% | -13.9%

New compounds follow.
molecule | Vaccinia Venus | VACV mCherry inh
CC(=O)Oc1ccc(-c2cccc(C(=O)Oc3ccccc3)c2)cc1 | -13.0% | /
CCOC(=O)c1c(C)[nH]c(C(=O)COC(=O)c2oc3ccc(OC)cc3c2C)c1C | -2.9% | -1.2%
N#Cc1cccc(C(=O)OCC(=O)N2CCCc3ccccc32)c1 | -4.9% | ?
CC(=O)NCC(=O)N1CCC(n2nccc2NC(=O)CCCc2ccccc2)CC1 | -3.1% | -3.1%
O=C1CC(NNc2nc3ccccc3s2)C(=O)N1c1ccc(F)cc1 (configuration not stated) | 0.0% | i
Fc1ccc(OCc2nc3ccccc3s2)cc1 | 3.8% | i
CCOC(=O)c1cccc(NC(=O)Cn2c(=O)c3cccn3c3ccccc32)c1 | -12.6% | -14.1%
CN(C)CCNC(=O)C(=O)NCC1CCCN1S(=O)(=O)c1cccs1 (configuration not stated) | -8.2% | -7.6%
CC(C)=CCC/C(C)=C/CNC(=O)CC1C[C@H](C(=O)N(C(C)C)C(C)C)[C@@]2(C)c3[nH]c4ccccc4c3CCN2C1=O (some centres not stated) | -1.2% | -24.3%
CCOc1ccc(CNC(=O)CCC(=O)N2Cc3ccccc3Oc3ncccc32)cc1 | -4.5%&-3.0% | -2.9%&-6.5%
Cc1ccc(C(=O)CNc2ccc(C)c(Cl)c2)cc1 | -12.4% | -15.1%
O=C(NC1C2CC3CC(C2)CC1C3)c1ccc(N2CCNCC2)c([N+](=O)[O-])c1 (configuration not stated) | -3.0% | -13.8%
Cc1nc(SCC(=O)N2CCNC2=O)c(C#N)c(C)c1C | -10.2% | -5.8%
O=C(COC(=O)CN1C(=O)COc2ccccc21)NCc1ccc(F)cc1 | -5.6% | -14.4%
Cc1cc(N)n(-c2ccc(S(=O)(=O)c3ccc(C(C)C)cc3)cc2)n1 | -1.0% | -17.8%
Cc1cc(-c2nc(C)c(-c3nnc(SCC(=O)Nc4ccccc4)n3C)s2)no1 | -16.9% | -20.8%
O=C1N=C(N2CCN(Cc3ccccc3)CC2)S/C1=C/c1cccs1 | -18.8% | -12.2%
Cc1ccc(OCC(=O)N2CCN(Cc3cccnc3)CC2)cc1 | -4.4% | -1.4%
COc1ccc(/C(C)=N/OCC(=O)Nc2nc3ccccc3s2)cc1OC | -15.2% | -3.7%
COC(=O)CCCCCCCC(=O)Nc1nnc(C(F)(F)F)s1 | -5.5% | -15.4%
CCOc1ccc(N2C(=O)NC(Cc3c[nH]c4ccccc34)C2=O)cc1 (configuration not stated) | -0.2% | /
CSc1nc2ccc(NC(=O)c3ccc(F)c(F)c3)cc2s1 | -4.5% | -1.0%
Cc1cccc(C)c1NC(=O)C1c2ccccc2OCC(=O)N1CC(F)(F)F (configuration not stated) | 1.9% | 16.7%
COc1ccc(Nc2ncc3c(n2)CCN(Cc2ccc(Br)s2)C3)c(OC)c1 | -10.8% | -9.4%
Cc1cn2c(=O)cc(COc3cccc(NC(=O)c4ccccc4Cl)c3)nc2s1 | -6.1% | -8.7%
CCCc1nn2c(=O)c(C(c3cccc(Cl)c3)c3c(O)nc4sc(CCC)nn4c3=O)c(O)nc2s1 | -11.8% | -16.4%
COc1ccc(OCc2cc(C(=O)N3CCC(c4ccccc4)CC3)no2)c(Cl)c1 | -13.2% | i
COc1ccc(NC(=O)CSc2nnc(Cc3cccn3C)n2-c2ccc(F)cc2)cc1OC | 1.5% | -8.4%
